Screening data from PubChem BioAssay.
VDR inh – blocks the human vitamin D receptor; P11473; VDR-SRC2-3 peptide fluorescence polarization, 2 h; Potency, µM, for inactives: max response, negative = inhibition, usual class: inhibitors; hit rate 0.93% among 400,000; active = well fitted inhibition curve with a large enough effect; inconclusive = small, poorly fitted or top-dose-only effect, or another doubt; inactive = no such curve, though single readings can be large or run the other way; note: series mostly up to about 120 µM
Target sequence (P11473 whole entry, looked up): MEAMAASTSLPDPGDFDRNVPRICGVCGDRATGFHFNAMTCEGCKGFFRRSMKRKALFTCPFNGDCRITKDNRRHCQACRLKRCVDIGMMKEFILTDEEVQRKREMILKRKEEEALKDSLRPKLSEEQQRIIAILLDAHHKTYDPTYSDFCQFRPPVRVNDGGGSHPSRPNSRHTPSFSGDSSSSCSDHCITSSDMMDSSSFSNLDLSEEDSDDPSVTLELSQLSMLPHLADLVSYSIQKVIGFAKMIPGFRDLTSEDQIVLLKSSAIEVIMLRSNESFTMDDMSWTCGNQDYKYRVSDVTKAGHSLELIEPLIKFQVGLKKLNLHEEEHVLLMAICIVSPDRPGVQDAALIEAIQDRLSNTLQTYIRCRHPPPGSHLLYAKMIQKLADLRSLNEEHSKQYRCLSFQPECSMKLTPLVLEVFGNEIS
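Signal is fluorescence polarization, reporting how far test compounds block the interaction of VDR with the SRC2-3 coregulator peptide after a 2 h room-temperature incubation.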
* = called active by the depositor; ? = inconclusive; & = joins results of further samples. % is set by controls: 0 for no effect and ±100 for the full control effect; potency is the fitted concentration of half-maximal effect.

Start of the data: the first two entries as a preview:
VDR inh | compound
3.7% | CCCCCNC(=O)C1CC(=O)OC12CCCCC2 (stereo unspecified)
-10.7% | N#Cc1sc2nc(N3CCCCC3)c3c(c2c1N)CCCC3

The listing, from the first entry:
VDR inh | compound
3.7% | CCCCCNC(=O)C1CC(=O)OC12CCCCC2 (stereo unspecified)
-10.7% | N#Cc1sc2nc(N3CCCCC3)c3c(c2c1N)CCCC3
3.6% | CC(=O)N1CCc2cc(S(=O)(=O)C(C)CC(=O)Nc3ccc(Br)c(C)c3)ccc21 (stereo unspecified)
-2.8% | CCCCCn1c(=O)[nH]c2cc(C(=O)N3CCN(c4ccccc4)CC3)ccc2c1=O
-5.3% | Cc1ccc(-c2noc(CN3C(C)CCCC3C)n2)cc1 (stereo unspecified)
-2.2% | COc1ccc2c(c1)CCC1C2CCC2(C)C(O)C(=O)CC12 (stereo unspecified)
8.9% | CNc1nc(N)c(C(=O)C(C)(C)C)s1
4.4% | Cc1noc(C)c1C(=O)N1CCC2(CCCN(C(=O)Nc3cccc(C#N)c3)C2)CC1
-12.5% | CCn1ccc(C(=O)Nc2ccc(N(C)C(C)=O)cc2)n1
-6.0% | CCN(C(=O)CSc1nnc(-c2ccc(OC)cc2)n1C(C)C)C1CCS(=O)(=O)C1 (stereo unspecified)
16.0% | Cc1ccc(N=C2NC(=O)/C(=C/c3cccnc3)S2)cc1C
3.3% | COc1ccc([N+](=O)[O-])cc1NC(=O)COC(=O)c1ccccc1C(=O)c1ccccc1
11.5% | Cn1c(SCC(=O)NC2CCCC2)nnc1-c1ccc(S(=O)(=O)N2CCOCC2)cc1
6.9% | CCCN=Cc1c(CCC)[nH]n(-c2nc3ccccc3s2)c1=O
-7.5% | CCc1cccc(Nc2c([N+](=O)[O-])cc(C(=O)N3CC(=O)Nc4ccccc43)cc2[N+](=O)[O-])c1
-3.4% | CCC(=O)Nc1nnc(-c2cccs2)s1
-7.5% | CCOc1ccc(CSC(=N)N)cc1
-19.6% | Cc1nnc(SCc2nnc(-c3ccccc3)o2)n(N)c1=O
-2.5% | C[C@@H](C1=C(CCN(C)C)Cc2ccccc21)c1ccccn1
-9.6% | COc1ccc(OCC(O)CNC(=O)c2c(-c3ccccc3)noc2C)cc1 (stereo unspecified)
-10.5% | COC(=O)c1cn(CC(=O)Nc2ccccc2C)c2ccccc12
-15.9% | COc1cc(Br)c(C2CC(=O)Nc3cc4c(cc32)OCCO4)cc1OC (stereo unspecified)
-15.9% | Fc1ccc(Br)cc1C1C=C(c2cccnc2)Nc2ncnn21 (stereo unspecified)
0.4% | CCn1c(N2CCN(C(=S)NCC(C)C)CC2)nc2ccccc21
? | COc1ccccc1NC(=O)CCC(=O)Nc1cc(OC)c(NC(=O)c2cccs2)cc1OC
10.7% | COc1cc(Cl)c(NC(=O)CC(C)S(=O)(=O)c2cc3c(cc2C)NC(=O)CO3)c(OC)c1 (stereo unspecified)
7.6% | COC(=O)Cc1ccc(NC(=S)NCc2ccc(S(N)(=O)=O)cc2)cc1
-9.4% | Cc1ccc(CSc2nnc(SCC(=O)N/N=C/c3c(C)nn(-c4ccccc4)c3C)s2)cc1
15.2% | Cn1c(CNC(=O)CNC(=O)c2ccc(C(C)(C)C)cc2)cc(=O)n(C)c1=O
9.0% | Cc1oc2c(C)c3oc(=O)c4c(c3cc2c1C)CCCC4
-29.7% | COc1ccc(CCNC(=O)CC(Cc2ccc(C)cc2)C(=O)O)cc1OC (stereo unspecified)
10.1% | COCCN1CCN(C(=O)c2cc(COc3ccc(F)cc3Cl)on2)CC1
-29.8% | COc1cc(OC)c(C2C=C(C(=O)O)Nc3ncnn32)cc1OC (stereo unspecified)
8.6% | Cc1cc(C)c(NC(=S)N(CCN(C)C)Cc2cccs2)c(C)c1
4.0% | COc1ccc(C(=O)N2CCN(C(=O)CC(C)C)CC2)cc1OC
-11.3% | COc1ccc(-c2noc(=O)n2Cc2ccccc2F)cc1
17.3% | O=C(CCN1C(=O)C2CC=CCC2C1=O)Nc1nc(-c2ccc(F)c(F)c2)cs1 (stereo unspecified)
-5.3% | CCOC(=O)c1ccccc1NC(=O)N1CCCn2nc(C)cc21
13.0% | COc1ccc(C(=O)NC(Cc2c[nH]c3ccccc23)C(=O)O)cc1 (stereo unspecified)
4.4% | Cc1ccc(S(=O)(=O)N2CCN(C(=O)C(F)(F)F)C2c2ccc(N(C)C)cc2)cc1 (stereo unspecified)
-3.1% | Clc1ccc(CN2C3=NCCCN3c3ccccc32)cc1
-6.5% | O=C(COC(=O)c1ccc(O)cc1)c1ccc(S(=O)(=O)N2CCCCC2)cc1
? | Cc1cc(C)nc(S/C=C/C(=O)c2ccccc2)n1
? | Cc1ccc(-c2nc(=Nc3c(C)cc(C)cc3C)sn2-c2ccccc2)cc1
2.5% | CCOC(=O)c1c(C)n(CC(COC(C)=O)OC(C)=O)c2ccc(OC(C)=O)cc12 (stereo unspecified)
21.9% | Fc1ccc(CN2CCCN(C(=S)Nc3ccc(F)cc3)CC2)cc1
-18.6% | COc1ccc(C(=O)Nc2cc3c(cc2C(=O)c2ccccc2Cl)OCCO3)cc1
0.3% | CC(=O)N=c1sccn1CC(=O)c1ccc([N+](=O)[O-])cc1
-5.8% | Cc1ccccc1-c1cc(C(=O)NCc2cccc(C(F)(F)F)c2)n(CC2CC(c3cccnc3)=NO2)n1 (stereo unspecified)
0.2% | CCCCn1c(SCC(=O)N2CCN(c3ccccc3)CC2)nc2ccsc2c1=O

The list continues.
VDR inh | compound
-11.4% | CC(NC(=O)CSC1=NCCS1)c1ccccc1 (stereo unspecified)
-10.2% | Cc1ccc(S(=O)(=O)c2nc(NCCN(C)C)sc2Cl)cc1
-0.2% | CC(=O)c1cccc(NC(=O)NCc2cccs2)c1
-12.8% | O=C(CN1CCOc2ccccc21)NC1CC1
-11.6% | CCOc1ccc(NC(=O)c2ccccc2-c2ccccc2C(=O)O)cc1
-2.6% | CCCNS(=O)(=O)c1cc(CN2C(=O)c3cccnc3C2=O)ccc1OC
-6.0%&-2.4% | CCOCCCn1c(=N)c(S(=O)(=O)c2ccccc2)cc2c(=O)n3cc(C)ccc3nc21
-9.0% | OCCOCCn1c(CCNc2nc(-c3ccc(F)cc3)cs2)nc2cc(C(F)(F)F)ccc21
6.9% | COc1ccc(CCNC(=O)N2CCOCC2)cc1
-20.4% | COc1ccc(-c2cc(C(=O)N(C)Cc3ccc(F)cc3)c3ccccc3n2)cc1OC
-15.3% | Cc1ccc(C)c(CSC2=NCCN2C(=O)Cc2ccc([N+](=O)[O-])cc2)c1
-4.3% | CCCc1nc(SCC(=O)Nc2ccc(S(=O)(=O)N(C)C)cc2)c2ccccc2n1
2.1%&5.9% | CCOC(=O)c1ccc(Nc2nc(N)c3cc(OC)c(OC)cc3n2)cc1
-20.1% | CCOC(=O)C1=C(CC)Nc2ccccc2N=C1NC(=O)c1cccc(S(=O)(=O)N2CCCC2)c1
5.3% | Nc1nc(SCC(=O)Nc2ccc([N+](=O)[O-])cc2Br)n[nH]1
-0.2% | O=S(=O)(c1cccs1)N1CCN(Cc2cccc(F)c2)CC1
3.8% | OCCNCc1ccc(OC2CCCC2)cc1
11.5% | COc1ccc(C(C(=O)NC2CCCC2)N(C(=O)c2snc(C(N)=O)c2N)c2cccc(O)c2)cc1 (stereo unspecified)
1.1% | Cc1cccc(NC(=O)C2CC(=O)n3cnnc3S2)c1 (stereo unspecified)
-4.2% | CCCCNC(=O)c1cnn2c(C)c(Cc3c(F)cccc3Cl)c(C)nc12
-3.2% | Cc1ccccc1NC(=O)CCc1c(C)nn(-c2ccc(N3CCOCC3)nn2)c1C
1.2% | Cc1cccc(N(CC(=O)NCc2ccco2)C(=O)CNS(=O)(=O)c2ccc(F)cc2)c1
5.7% | COc1ccc(C(=O)NCCn2cc(SCc3cccc(F)c3)c3ccccc32)cc1OC
-4.8% | C=CCn1c(SCCOc2ccc(OC)cc2)nnc1C(C)NC(=O)c1ccc(OC)cc1 (stereo unspecified)
? | Cc1ccc(NC2=C(NCCO)C(=O)c3ccccc3C2=O)cc1
-18.7% | CN(C)C(CNC(=O)c1ccc(NC(=O)c2cccs2)cc1)c1ccccc1 (stereo unspecified)
-2.1% | Cc1cc(C)c2c(N)c(C(=O)Nc3ccc([N+](=O)[O-])cc3)sc2n1
-12.3% | FC(F)(F)c1nc(SCc2ccc(Cl)cc2Cl)n[nH]1
7.2% | Cn1c(-c2ccc(F)cc2)cnc1SCC(=O)NNC(=O)Cc1ccccc1
-8.2% | O=C(O)c1cc(S(=O)(=O)N2CCCCC2)ccc1F
12.9% | O=C(C1CCCN(S(=O)(=O)c2ccc(F)cc2)C1)N(Cc1cccs1)C1CC1 (stereo unspecified)
? | COc1ccc(/C=N/NC(=S)Nc2cc(S(=O)(=O)N3CCOCC3)ccc2N2CCOCC2)cc1O
-8.1% | O=C(O)c1ccc2c(c1)C(=O)N(CCc1c[nH]c3ccccc13)C2=O
10.3% | Cc1cccc2sc(N(Cc3cccnc3)C(=O)C3CCCCC3)nc12
-7.3% | O=C(NC(=S)Nc1ccccc1N1CCN(C(=O)c2ccccc2)CC1)c1cccs1
-0.4% | CCOc1ccc(NC(=O)c2ncn(-c3ccccc3)n2)cc1
-21.9% | COc1ccccc1N1C(=O)c2cccc3c(C(=O)O)ccc(c23)C1=O
8.2% | Cn1c(=O)c2c(nc(NC3CCCCC3)n2CC(O)COc2ccccc2)n(C)c1=O (stereo unspecified)
-9.6% | O=C1CS(=O)(=O)C2(C(=O)N(Cc3cccc(F)c3)c3ccccc32)N1c1ccccc1 (stereo unspecified)
-1.8% | COc1ccc(-c2nc3cnc(N4CCN(C)CC4)nc3n(CCC#N)c2=O)cc1

Grouped by structure: the compounds so far with a tert-butyl group (2)
VDR inh | compound
8.9% | CNc1nc(N)c(C(=O)C(C)(C)C)s1
15.2% | Cn1c(CNC(=O)CNC(=O)c2ccc(C(C)(C)C)cc2)cc(=O)n(C)c1=O

Next section:
VDR inh | compound
-26.5% | CSCCC(NC(=O)c1ccccc1Cl)C(=O)N1CCCCC1 (stereo unspecified)
1.6% | COc1ccc2c(c1)CCc1cn3ncc(C#N)c3nc1-2
-2.2% | O=CN(CCNc1ccccc1)c1ccccc1
3.3% | C[C@H](CO)N1C[C@H](C)[C@@H](CN(C)Cc2ccc(Oc3ccccc3)cc2)Oc2ccc(NC(=O)Cn3cnnn3)cc2C1=O
-1.5% | CC(=O)N1CCN(c2csc3ccc(Cl)cc3c2=O)CC1
-17.3% | COc1ccc(CNC(=O)CS(=O)Cc2nc(-c3cccc(C)c3)oc2C)cc1 (stereo unspecified)
-7.0% | COc1ccc(Cl)cc1-c1nc(SCC(=O)NC(C)C)n[nH]1
1.8% | CCOCc1nnc(NC(=O)c2cc(Cl)ccc2OC)s1
17.7% | CCOc1ccc(CNc2nc3nc(C)c(Cc4ccccc4)c(=O)n3[nH]2)cc1
-11.0% | CCOc1ccc(-n2c(SCc3cc(=O)oc4cc(C)c(C(C)C)cc34)nnc2-c2cccnc2)cc1
-13.7% | CC(=C/c1ccccc1)/C=N/n1c(C)n[nH]c1=S
6.5% | COC(=O)C1C(=O)NCC1c1ccc(OC)cc1 (stereo unspecified)
-6.3% | CCOC(=O)CNC(=O)N1CCC(CCOc2ccccc2)(C(=O)OCC)CC1
16.5% | N#Cc1nc(-c2cccs2)oc1N1CCOCC1
-14.6% | Cc1sc2nc(SCC(=O)NCCCO)n(-c3ccccc3)c(=O)c2c1C
3.2% | CCCCN(CC)C(=O)Cc1ccccc1OC
-1.7% | CS(=O)(=O)c1ccc(NC(=O)CN2C(=O)C3CCCCC3C2=O)cc1 (stereo unspecified)
6.3% | O=S1(=O)c2ccccc2OC(COCc2ccccc2)CN1Cc1ccccc1 (stereo unspecified)
-10.8% | Cc1ccc(-c2[nH]ncc2/C=N/n2c(COc3ccccc3)nc3ccccc3c2=O)cc1
-9.2% | COc1ccc(S(=O)(=O)N2CCC(C(=O)NC3(C)CCS(=O)(=O)C3)CC2)cc1OC (stereo unspecified)

Laid out differently: entries from further up
> COC(=O)C1C(=O)NCC1c1ccc(OC)cc1 (stereo unspecified)
  VDR inh: 6.5%
> CCOC(=O)CNC(=O)N1CCC(CCOc2ccccc2)(C(=O)OCC)CC1
  VDR inh: -6.3%
> N#Cc1nc(-c2cccs2)oc1N1CCOCC1
  VDR inh: 16.5%

The listing continues.
VDR inh | compound
6.1% | CCc1ccc(OC)c(-c2csc(N)n2)c1
5.4% | C[C@@H]1C(=O)O[C@H]2[C@H]1CC[C@@]1(C)C(=O)C=C[C@@](C)(O)[C@H]21
-15.1% | CCCCC1=CC2=CC(=O)C(C)(OC(=O)CC)C(=O)C2=CN1Cc1ccccc1 (stereo unspecified)
? | CN(C)S(=O)(=O)c1ccc(NC(=S)NC(=O)Cc2ccccc2)cc1
-7.0% | CC(C)(C)CN1C(N)=NC[C@@H]1Cc1ccc(O)cc1
-14.7% | CC(C)C(C)(C#N)NC(=O)CSc1nc2scc(-c3ccccc3)c2c(=O)[nH]1 (stereo unspecified)
-1.2% | Cc1nn(CC(=O)N(C)C)c(C)c1S(=O)(=O)N1CCOCC1
-16.8% | CCOC(=O)/C=C/c1ccccc1S(=O)(=O)NC(C)(C)C
-1.6% | COC(=O)N/N=C/c1cn(CCOc2ccccc2)c2ccccc12
-7.4% | O=C(N/C(=C/c1ccc([N+](=O)[O-])cc1)C(=O)N1CCOCC1)c1ccco1
6.6% | CCOC(=O)c1n[nH]c(=O)c2ccccc12
-7.3% | CCCN1CCC(=O)N(CCSc2ccc(Br)cc2)CC1
-9.1% | COCCOC(=O)C1=C(C)N=C2SCCC(=O)N2C1/C=C/c1ccccc1 (stereo unspecified)
14.0% | Cc1cc2nc(C)c3c(n2n1)CCC3
0.0% | O=C(CSc1nnc(CNC(=O)c2cccc(C(F)(F)F)c2)o1)NC1CCCC1
9.4% | Clc1ccccc1CNCCCSc1nnnn1-c1ccccc1

An excerpt, so the mix of outcomes need not match the whole.
